Bioassay records (PubChem BioAssay)
AF4-AF9 inh: inhibitors of AF4 peptide binding to AF9, primary screen, biochemical, AlphaScreen, biotin-AF4 peptide, FLAG-AF9, single point | Protein AF-9 (Homo sapiens), P42568 | inhibition, % at 10 µM | actives 0.47% (n = 350,000) | AID 651704, 2012;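 active = every replicate reaching a set inhibition limit, whatever the replicate mean, cut at about 25% in these data; inconclusive = mean inhibition reaches that limit but some replicates miss it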;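 also: 0% = plate neutral control median and 100% = total signal loss; the record names both 10 and 1 µM as test concentration; the first replicate is given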
Target sequence (P42568 whole entry, looked up): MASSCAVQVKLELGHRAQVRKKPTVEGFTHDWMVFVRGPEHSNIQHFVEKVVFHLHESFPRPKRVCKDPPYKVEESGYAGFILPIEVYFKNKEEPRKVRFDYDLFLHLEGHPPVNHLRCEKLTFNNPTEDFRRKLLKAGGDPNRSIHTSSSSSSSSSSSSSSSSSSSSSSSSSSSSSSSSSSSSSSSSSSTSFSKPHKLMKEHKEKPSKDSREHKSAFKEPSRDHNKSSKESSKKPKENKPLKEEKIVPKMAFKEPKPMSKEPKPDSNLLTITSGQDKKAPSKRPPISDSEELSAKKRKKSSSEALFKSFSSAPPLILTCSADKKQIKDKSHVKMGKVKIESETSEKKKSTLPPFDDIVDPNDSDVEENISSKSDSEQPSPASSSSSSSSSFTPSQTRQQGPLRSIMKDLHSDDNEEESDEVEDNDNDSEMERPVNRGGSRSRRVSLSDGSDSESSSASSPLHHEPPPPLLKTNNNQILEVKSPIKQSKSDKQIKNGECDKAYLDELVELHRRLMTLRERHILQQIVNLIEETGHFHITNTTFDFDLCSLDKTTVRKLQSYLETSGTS
Bfl-1 A1 inh: caspase 3/7 activation in MEF A1-2A-BIM cells, primary screen, A1 inhibitor project, cell-based, luminescence, HTS; Caspase-Glo 3/7 luminescence, 3 h; percent of clofoctol response, vehicle zero; caspase activation, % (test concentration not listed); actives 0.066% (n = 330,000); AID 2462, 2010;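 active = over half of replicate activation scores above 10%, or exactly half above 10 with the replicate mean above 10; inconclusive = replicate mean below 10 yet half the replicates above 10; inactive = over half of replicates below 10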;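 also: wells of about 30 µL received 50 nL stock; many hits fall short of the cut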
T cruzi inh: inhibitors of intracellular T. cruzi growth, primary screen, luminescence, NIH3T3 host cells; actives 1.4% (n = 300,000); inhibition, % (concentration not given with the values); T. cruzi beta-gal in NIH3T3, 90 h; AID 1885, 2009;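 active = mean inhibition across valid replicates above about 55%, limit read from the data; inconclusive = mean below that limit but half or more replicates reach it; inactive = mean below it, under half of replicates reach it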;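 also: signal also drops with host cell toxicity which is not excluded here; 0% = plate median of DMSO wells and 100% = zero luminescence signal; higher percent means less beta-gal luminescence so fewer parasites; stock transfer was 50 nL into about 50 µL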
RanGTP-Impb inh: inhibitors of RanGTP-importin-beta interaction, primary screen, biochemical, FRET, CFP-Ran, YFP-importin-beta, homogeneous. inhibition, % (test concentration not listed). cell-free CFP-Ran/YFP-importin-beta FRET ratio. Ran GTPase (GTP-bound) - importin-beta complex. actives 1.1% (n = 300,000). AID 2216, 2009;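 active = most replicates above 15%; inconclusive = exactly half above 15%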;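 also: 0% = DMSO wells and 100% = Ran loaded with GDP instead of GTP; wells of about 40 µL received 100 nL stock; the first replicate is given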
rRNA inh HTS: reduced GFP signal of wild-type E. coli, primary screen, bacterial rRNA inhibitor project, GFP/RFP fluorescence, OD600, single point | E. coli WT GFP vs humanized-ribosome RFP mutants, 24 h; hits give low values; DMSO median 0, no signal -100 | GFP signal change (wild-type ribosome), % (concentration not given with the values) | actives 1.6% (n = 350,000);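 active = significant combined selectivity score with lowered wild-type GFP, culture density cut under 30%, mutant RFP and density less affected; inactive = any of these conditions unmet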; also: one replicate is shown; some compounds called inactive have numbers as strong as hits
Calb FLC: C. albicans growth inhibition with fluconazole, primary screen, CaCi-2 strain, Alamar Blue fluorescence; C. albicans CaCi-2 (fluconazole-resistant clinical isolate) + fluconazole, 48 h; growth inhibition, % (concentration not given with the values); actives 0.57% (n = 300,000);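 active = most replicates above 75%; inconclusive = exactly half above 75%; inactive = most below 75%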;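 also: all wells also contain fluconazole at 8 µg/ml as a sub-toxic cotreatment; 0% = median of DMSO wells and 100% = median of geldanamycin control wells; wells of about 8 µL received 7.5 nL stock; the first replicate is given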
Vif TR-FRET: inhibitors of Vif binding to APOBEC3G peptide, primary screen, biochemical, TR-FRET, GST-Vif 1-94, biotin-A3G peptide, dose response retest (AID 1117319) | Virion infectivity factor (Human immunodeficiency virus type 1 group M subtype B (isolate … | TR-FRET GST-Vif / biotin-A3G peptide binding; higher % means a stronger effect; test concentration not given here; strong numbers were not always called active | inhibition, %; hits with a dose series show IC50 in µM | actives 0.57% (n = 260,000);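 active = above the screen mean plus three standard deviations and confirmed in dose response; inconclusive = results disagree or hit not tested in dose response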;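 also: Vif residues 1-94 fused to GST binding biotinylated APOBEC3G peptide 110-148; 0% = full assay without inhibitor and 100% = GST in place of GST-Vif; retest series ran down from 100 µM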
Beta apoptosis: inhibitors of cytokine-induced beta cell apoptosis, primary screen, luminescence; AID 435005, 2010; actives 0.8% (n = 300,000); protection from apoptosis, % (concentration not given with the values); INS-1E cytokine-induced death, ATP luminescence, 48 h; percent of positive-control rescue, neutral wells zero;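 active = all replicates at 75% or more, or half of them and the mean; inconclusive = half reach 75% but not the mean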;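 also: 0% = cytokine-treated negative control wells and 100% = positive control rescue; higher means more ATP so stronger rescue from cytokine killing; wells of about 40 µL received 100 nL stock; the first replicate is given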
rRNA inh HTS OD600: recorded beside rRNA inh HTS, whose call it bears; OD600 change, %; measured here: OD600 growth;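 optical density of the mix in the first replicate; 0 = DMSO median and -100 = no signal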
rRNA inh HTS RFP: second read-out of rRNA inh HTS, no call of its own (marks repeat the call); RFP signal change, %; measured here: RFP humanized mutant strains;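 first replicate; 0 = DMSO median and -100 = no signal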
Starred values were filed as active, the others as inactive; ? = inconclusive; . = no result given. Not all compounds are listed; count on the stated rates, not on these rows.

SMILES | AF4-AF9 inh | Bfl-1 A1 inh | T cruzi inh | RanGTP-Impb inh | rRNA inh HTS | rRNA inh HTS OD600 | rRNA inh HTS RFP | Calb FLC | Vif TR-FRET | Beta apoptosis
Cc1ccc(S(=O)(=O)N2CCOCC2)cc1NC(=O)CN1CCN(C)CC1 | 0.4 | -0.5 | . | . | 7.4 | 9.2 | -4.4 | . | 6.3% | 4.3
Cn1ccnc1SCC(=O)c1ccc(O)cc1 | -3.6 | -6.0 | -18.8 | ? | 7.4 | -0.1 | 2.0 | -17.2 | 5.0% | -5.2
COc1ccc(-c2nc(-c3ccc(Br)cc3)no2)c(OC)c1 | . | 2.1 | 13.4 | 4.7 | . | . | . | 14.5 | -22.2% | -14.3
CC(Sc1nc(NCc2ccccc2)nc(N(C)C)n1)C(=O)Nc1ccccc1 (stereo unspecified) | . | 0.2 | 19.4 | 1.7 | . | . | . | ? | -3.1% | 41.5
O=c1ccn(CCOc2ccc(Cl)cc2)c(=O)[nH]1 | . | -0.1 | -13.1 | 8.6 | . | . | . | -3.6 | 20.8% | 0.3
CC(C)(C)C1CCC(=NNC(=O)C(=O)NCc2ccco2)CC1 (stereo unspecified) | 0.2 | -1.9 | 3.1 | -0.4 | 6.2 | 9.6 | -11.7 | -16.4 | 4.3% | -1.7
CC1(c2nnc(-c3ccncc3)o2)CC(c2ccccc2)=NO1 (stereo unspecified) | ? | 0.1 | -2.0 | -1.8 | -6.2 | 10.2 | 1.1 | -1.8 | . | -5.9
COc1ccccc1CNC(=O)c1oc2ccc(S(=O)(=O)N3CCCC3)cc2c1C | . | -1.3 | 17.5 | -0.9 | . | . | . | -0.4 | -0.4% | 9.1
Clc1ccccc1N=C1NN=C(c2cccs2)CS1 | 7.1 | -10.9 | 1.4 | 5.8 | -31.8* | 18.1* | 2.4* | -0.6 | 0.7% | 7.6
COc1ccc(CN2CCC(CO)(CCOc3ccccc3)CC2)cc1C | -5.8 | 0.7 | 25.4 | 0.8 | -4.1 | -3.4 | 3.6 | ? | 16.7% | .
CCC(CC)c1nnc(NC(=O)CCNC(=O)c2ccccc2Cl)s1 | -5.0 | -0.1 | -4.8 | 3.3 | 4.2 | 6.3 | -1.9 | -6.0 | 3.5% | -5.9
CCN1CCN(CC(O)COc2ccc3c(c2)CCC3)CC1 (stereo unspecified) | 7.0 | -0.1 | 8.8 | -2.5 | 1.7 | -3.4 | -6.1 | -4.4 | -4.3% | 1.5
CC(OC(=O)Nc1cccc(Cl)c1)C(=O)O (stereo unspecified) | -1.6 | -1.6 | 17.1 | 2.9 | 5.7 | 6.1 | 3.3 | -1.5 | -2.8% | 1.5
CCn1c(SCC(=O)Nc2sc(C)c(C)c2C#N)nnc1C(C)C | . | 0.6 | 9.0 | 4.1 | . | . | . | -3.9 | ? | -1.5
Cc1ccccc1NC(=O)NCCCN1CCN(C2CCCCC2)CC1 | . | 0.7 | 8.5 | 6.7 | . | . | . | 5.4 | 0.8% | -0.6
CCCC(C)NC(=O)CSCc1ccc(OC)cc1 (stereo unspecified) | 1.2 | -0.1 | 5.3 | 4.3 | -18.8 | -7.5 | -8.8 | 27.4 | 65.3% | -7.6
COc1ccc(NC(=S)N2CCN(S(=O)(=O)c3ccc(F)cc3)CC2)cc1 | -1.2 | -0.2 | . | . | 1.9 | -2.5 | 0.7 | -20.2 | . | -8.0
O=C1c2ccccc2C(Nc2cccnc2)N1Cc1ccccc1 (stereo unspecified) | 4.3 | 0.6 | -7.9 | 1.5 | 1.4 | -6.8 | -6.7 | -5.9 | 0.9% | 0.8
CCOC(=O)CCc1nn(C)c(=O)c2ccccc12 | 1.7 | 0.6 | -12.6 | ? | . | . | . | 2.6 | 21.8% | -0.3
CCOC(=O)c1ccc(NC(=O)Cn2c(-c3nonc3N)nc3ccccc32)cc1 | 0.6 | -0.8 | -12.9 | 1.6 | 11.5 | 34.4 | -8.4 | -14.6 | . | 16.7
O=C(CC1Sc2ccccc2NC1=O)c1ccc(Br)cc1 (stereo unspecified) | -1.3 | -1.7 | 8.7 | -3.5 | 4.8 | 7.8 | 4.3 | -5.5 | -11.3% | -9.8
COc1ccc2c(c1)C(SCC(=O)NCc1ccccc1)CC(C)(C)O2 (stereo unspecified) | -1.0 | -0.3 | 8.5 | ? | -7.8 | -15.3 | -2.4 | 3.1 | -9.8% | -3.4
NC(=O)c1nsc(C(=O)N(Cc2ccc(F)cc2)C(C(=O)NC2CCCC2)c2ccco2)c1N (stereo unspecified) | 2.9 | -0.3 | -7.8 | 4.7 | -0.2 | -14.8 | 9.8 | 31.6 | . | 2.6
Cc1ccc(S(=O)(=O)Nc2ccccc2C(=O)NCc2cccnc2)cc1 | -0.5 | 1.3 | 0.3 | 0.1 | -8.7 | -17.1 | -4.8 | 1.6 | . | -4.4
O=C(CCc1nc(-c2ccccc2)no1)Nc1cccnc1 | 0.5 | -0.1 | -15.8 | -1.4 | -1.0 | 0.8 | 0.1 | 4.2 | . | 0.7
COc1cccc(OC)c1CC1SC(=O)NC1=O (stereo unspecified) | -1.2 | -0.5 | 6.7 | 6.2 | -4.4 | -3.4 | -0.9 | -1.2 | -9.9% | 8.4
CCOc1ccccc1CN1CCC(N2CCOCC2)CC1 | 0.4 | 0.5 | 0.8 | -3.6 | 15.3 | 13.4 | 0.3 | -5.3 | 1.2% | .
COC(=O)CNC(=O)c1c(C)cc(=O)oc1C | . | 1.6 | -22.4 | 1.4 | . | . | . | 14.6 | -1.2% | .
COc1ccccc1-c1nc(C#N)c(N2CCC(Cc3ccccc3)CC2)o1 | . | 0.9 | -10.0 | 2.8 | . | . | . | 6.9 | 17.4% | -11.0
O=C1CS/C(=N/N=C\c2ccn[nH]2)N1 | -0.9 | -0.5 | -7.5 | ? | 1.6 | 4.1 | 0.0 | -11.2 | 1.0% | -4.4
COC(=O)CC1SC(=O)NC1=Nc1ccc(OC)cc1 (stereo unspecified) | . | -0.3 | -0.1 | -0.9 | . | . | . | 2.3 | -0.3% | 1.7
COc1ccccc1CNC(=O)C1CCC(CNc2c(N3CCOCC3)c(=O)c2=O)CC1 (stereo unspecified) | -1.6 | 0.3 | -19.1 | 12.9 | 12.0 | 16.9 | -0.3 | 4.7 | -2.4% | 1.0
CC1=NN(c2nc(-c3ccc(C)cc3)cs2)C(=O)C1N=Nc1ccc2ccccc2c1 (stereo unspecified) | . | -0.1 | -13.0 | -0.2 | . | . | . | -0.7 | -2.5% | -5.8
COc1ccc(/C=C/C(=O)Nc2ccc(S(=O)(=O)Nc3cc(C)nc(C)n3)cc2)cc1OC | 0.9 | 0.2 | ? | -0.4 | -7.4 | -6.1 | 3.2 | 5.1 | 11.6% | 1.6
CC(Oc1cccc(F)c1)c1ccnc2nc(/N=C/N(C)C)nn12 (stereo unspecified) | -6.5 | 1.9 | -4.5 | 3.0 | 2.7 | 3.5 | -1.2 | 1.3 | 14.0% | -5.8
CCOC(=O)/C(C(C)=O)=C1/OC(=O)c2ccccc21 | 0.7 | 0.5 | -11.6 | -0.2 | 8.6 | 1.3 | -0.7 | -9.9 | -3.5% | .
COc1cc(C(=O)NC2CC3CCCC(C2)N3Cc2ccccc2)cc(OC)c1OC (stereo unspecified) | 4.0 | -0.1 | -17.2 | ? | 5.1 | 7.5 | -1.1 | -4.8 | . | 1.8
CCC(CO)Oc1cc(NC(=O)c2ccc(OC)cc2)c2ncn(C(C)C)c2c1 (stereo unspecified) | 1.1 | -0.3 | . | . | -20.1* | -12.2* | 6.0* | . | . | 3.4
COc1ccc(-n2nnnc2/C=C/Nc2cc(C(F)(F)F)ccc2OC)cc1 | -1.0 | -0.7 | 6.3 | -0.2 | 14.6 | -5.9 | 6.4 | -1.5 | -7.9% | -0.9
CCCCCn1c(N2CCC(C(N)=O)CC2)nc2c1c(=O)[nH]c(=O)n2C | . | -0.2 | 2.2 | -11.2 | . | . | . | -2.5 | 3.6% | .
COc1ccc(NC(=O)c2ccco2)cc1NC(=O)c1ccccc1[N+](=O)[O-] | 0.1 | 1.2 | -7.0 | -0.7 | -4.2 | 9.9 | -0.3 | -3.8 | 5.8% | -11.3
COc1ccc(/C=N/NC(=O)c2ccn[nH]2)cc1COc1ccc([N+](=O)[O-])c(C)c1 | 4.9 | 0.6 | 2.3 | 4.3 | -14.9 | 4.7 | -2.1 | 7.0 | . | .
COC(=O)[C@@]1(Cc2ccc(F)cc2)[C@H]2c3cc(C(=O)N4CCCC4)n(CCc4ccccn4)c3C[C@H]2CN1C(=O)c1ccccc1 | 6.2 | 0.7 | . | . | 8.7 | 12.6 | 10.0 | . | ? | 3.8
COc1ccccc1NS(=O)(=O)c1cc(C)ccc1C | . | 0.3 | 6.7 | 2.4 | . | . | . | 0.2 | -4.1% | -4.3
Cc1ccc(C)c(-c2nnc(NC(=O)C3=COCCO3)o2)c1 | -16.8 | 0.5 | -16.1 | -0.5 | -13.9 | -35.3 | -3.9 | 14.5 | -4.0% | 1.1
COc1ccc(CC(=O)NCC2(c3ccc(OC)c(OC)c3)CCCC2)cc1 | 2.0 | 0.6 | 6.2 | 5.9 | -11.2 | -16.0 | -0.2 | 9.4 | -3.9% | -11.2
COc1cccc(NC(=O)C2CCCN(S(=O)(=O)c3cccc4nsnc34)C2)c1 (stereo unspecified) | . | 0.9 | -5.8 | 3.7 | . | . | . | 12.1 | -240.2% | 1.9

Three consecutive compounds from above, for reference:
SMILES | AF4-AF9 inh | Bfl-1 A1 inh | T cruzi inh | RanGTP-Impb inh | rRNA inh HTS | rRNA inh HTS OD600 | rRNA inh HTS RFP | Calb FLC | Vif TR-FRET | Beta apoptosis
COc1cc(C(=O)NC2CC3CCCC(C2)N3Cc2ccccc2)cc(OC)c1OC (stereo unspecified) | 4.0 | -0.1 | -17.2 | ? | 5.1 | 7.5 | -1.1 | -4.8 | . | 1.8
CCC(CO)Oc1cc(NC(=O)c2ccc(OC)cc2)c2ncn(C(C)C)c2c1 (stereo unspecified) | 1.1 | -0.3 | . | . | -20.1* | -12.2* | 6.0* | . | . | 3.4
COc1ccc(-n2nnnc2/C=C/Nc2cc(C(F)(F)F)ccc2OC)cc1 | -1.0 | -0.7 | 6.3 | -0.2 | 14.6 | -5.9 | 6.4 | -1.5 | -7.9% | -0.9
